Screening results (PubChem)
CSC inhib: cancer stem cell viability inhibitors, primary screen, luminescence; cancer stem cell-like cells viability; inhibition, % at 7.5 µM; 300,000 tested, 1.1% active; AID 2717, 2010;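 active means mean at 75% or more and at least half the replicates too; tested in HMLE shEcad cells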;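 further: 0% = median of negative and 100% = median of positive control wells; the first replicate is given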
HIV Env fusion: inhibitors of HIV-1 Env-driven cell-cell fusion, primary screen, HeLa-JRFL effector, CEM21 target cells, luciferase. inhibition, % at 12.3 µM. 360,000 tested, 1.1% active;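 active means mean replicate inhibition score of at least 50 and every replicate individually at or above 50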;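 further: 0% = plate neutral controls and 100% = maraviroc near 300 nM; one replicate is shown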
UUG fidelity: modulators of yeast start codon fidelity, primary screen, whole organism, S. cerevisiae, single point, plate reader; activity score, % at 18.7 µM; 350,000 tested, 0.13% active; S. cerevisiae UUG-firefly luciferase reporter, luminescence/redox ratio;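 active means replicate mean at a twofold rise or more, about +100% in these data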;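 further: firefly luciferase made from a UUG start codon reports start codon fidelity; reporter light over untreated wells divided by growth signal over untreated wells; some hits fall short of that in this replicate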
MT1-MMP act inh: blockers of MT1-MMP proenzyme processing, primary screen, HT1080 RFP-PRO-GFP cells, GFP/RFP fluorescence | GFP/RFP ratio fluorescence, overnight; percent of plate control window, DMSO zero | GFP/RFP ratio change, % at 20 µM | Matrix metalloproteinase-14 (Homo sapiens), P50281 | 360,000 tested, 0.061% active;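 active means GFP/RFP ratio change of at least 30% with cell ATP level not reduced by more than half and red fluorescence within 50% of control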; further: strong numbers were not always called active
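Material – HT1080 RFP-PRO-GFP cells · Control set – DMSO wells and RFP-L50D-GFP cells · Incubation – overnight cell settling, then overnight compound exposure, 37 °C, 5% CO2 · Compound dosing – single-point 20 µM compound, 1% DMSO · Read-out – GFP/RFP fluorescence ratio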
eIF4H inh: human eIF4H binding inhibitors, primary screen, translation initiation inhibitor project, biochemical, uHTS, fluorescence polarization. Eukaryotic translation initiation factor 4H (Homo sapiens), Q15056. eIF4H fluorescence polarization binding assay. inhibition, % at 35 µM. 290,000 tested, 0.94% active;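 active means 50% or more with normal probe brightness, or confirmed in later tests; about a fifth of its hits are not listed in these tables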;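 further: calls also rest on retests at 20 µM and on dose response follow-up; 0% = protein and probe with vehicle and 100% = probe without protein; strong numbers were not always called active; many hits fall short of the cut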
PABP polyA inh: PABP poly(A) RNA binding inhibitors, primary screen, biochemical, fluorescence polarization, uHTS. Polyadenylate-binding protein 1 (Homo sapiens), P11940. inhibition, % at 35 µM. 290,000 tested, 1% active. AID 2014, 2009;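 active means 50% or more with normal probe brightness, or confirmed in later tests; about a fifth of its hits are not listed in these tables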;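 further: calls also rest on retests at 20 µM and on dose response follow-up; controls were probe without protein and protein plus probe with vehicle; some compounds called inactive have numbers as strong as hits; many hits fall short of the cut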
Target sequence (P11940 whole entry, looked up): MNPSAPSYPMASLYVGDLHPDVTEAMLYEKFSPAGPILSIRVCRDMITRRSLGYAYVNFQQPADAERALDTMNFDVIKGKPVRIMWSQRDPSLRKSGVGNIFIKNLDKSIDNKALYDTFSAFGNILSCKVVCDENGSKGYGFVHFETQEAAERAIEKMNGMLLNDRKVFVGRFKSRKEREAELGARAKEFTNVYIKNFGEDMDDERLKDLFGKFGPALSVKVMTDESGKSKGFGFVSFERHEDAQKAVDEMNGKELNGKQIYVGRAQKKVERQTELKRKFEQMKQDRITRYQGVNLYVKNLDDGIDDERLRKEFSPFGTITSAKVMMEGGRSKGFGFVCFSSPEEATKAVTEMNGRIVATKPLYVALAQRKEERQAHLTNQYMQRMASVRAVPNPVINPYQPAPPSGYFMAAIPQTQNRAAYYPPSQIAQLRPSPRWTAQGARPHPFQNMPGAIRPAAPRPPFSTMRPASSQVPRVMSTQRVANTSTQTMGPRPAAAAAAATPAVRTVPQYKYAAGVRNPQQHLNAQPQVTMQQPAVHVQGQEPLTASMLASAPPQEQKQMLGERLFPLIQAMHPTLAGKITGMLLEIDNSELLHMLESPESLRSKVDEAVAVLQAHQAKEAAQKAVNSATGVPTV
Rce1 inhib: yeast Rce1p protease inhibitors, primary screen, biochemical, fluorescence, cell-free homogeneous; AID 2563, 2010; CAAX prenyl protease 2 (Saccharomyces cerevisiae (strain ATCC 204508 / S288c)), Q03530; yeast membranes, quenched prenylated peptide cleavage fluorescence; 290,000 tested, 0.27% active; calls only;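 active means fall in fluorescence gain of 50% or more versus controls, with final raw signal at or below 3038400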;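 further: plate controls were neutral control wells for no effect and wells lacking membranes for full effect; tested at 10 µM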
eIF4H inh retest: further read-out of eIF4H inh, marked with its call; inhibition, %; compound at 20 µM; confirmation average;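 mean of two retest wells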
PABP polyA inh retest: second read-out of PABP polyA inh, no call of its own (marks repeat the call); inhibition, %; compound at 20 µM; confirmation repeats;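 mean of two retest wells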
MT1-MMP act inh RFP: second read-out of MT1-MMP act inh, no call of its own (marks repeat the call); RFP signal change, %; measured here: RFP expression control read;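 0 = vehicle wells; hits needed this value within 50% of zero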
* marks the source's active call; other numbers are inactive results; i = inactive; · = no result given; & = joins results of further samples; [ ] = remark or other dose. An excerpt; the hit share may differ from the screen's.

SMILES	CSC inhib	HIV Env fusion	UUG fidelity	MT1-MMP act inh	MT1-MMP act inh RFP	eIF4H inh	PABP polyA inh	Rce1 inhib	others
CC1C(C)C(O)(c2ccccc2)CCN1C (centres undefined)	-8	-42	-7	5	4	7	-9	·
CC(C)(C)c1ccccc1OCCCCN1CCCC1	3	·	-13	0	8	-11	-4	i
C[C@@H]1CCCCO[C@@H](CN(C)CC2CC2)[C@@H](C)CN([C@H](C)CO)C(=O)c2cc(N(C)C)ccc2O1	·	3[16.7 µM]	-8	-2	6	·	·	·
O=C1/C(=C\c2ccc(O)cc2)SC(=S)N1Cc1ccccc1	-13	-3	-14	-151	-1	15	34	i
O=C(Oc1c(-c2ccccc2)c(=O)n2c3c(cccc13)CC2)c1ccc(F)cc1	-1	-1	·	-1	0	-3	-1	i
CC(C)NC(=O)N(C)C[C@@H]1Oc2c(NC(=O)Nc3ccccc3)cccc2C(=O)N([C@H](C)CO)C[C@H]1C	-14	1	-1&14	0	3	·	·	·
CCN(CC)S(=O)(=O)c1ccc(N2CCOCC2)c(NC(=O)C23CC4CC(CC(Cl)(C4)C2)C3)c1	-1	40	·	-6	-6	7	-8	i
CN(C)C1=NC[C@H](Cc2ccccc2)N1CC1CCCCCC1	-9	-25	-10	2	3	·	·	·
CC(C)(C)C(=O)n1nc(-c2ccccc2)oc1=O	-6	-16	·	4	2	-11	-9	i
NC(=O)[C@@H]1CCCCNc2c(F)cc([N+](=O)[O-])cc2C(=O)N[C@@H](CCCN=C(N)N)C(=O)NCC(=O)N1	-9	-36	-4	3	0	3	-4	i
CCOC(=O)c1ccccc1NC(=O)COC(=O)CCC1CCCC1	·	0	-21	2	1	·	·	·
Cc1ccc([C@@H]2CC=C(C(=O)O)[C@H](c3ccccc3)N2S(=O)(=O)c2ccccc2C)cc1	·	4	8	5	7	·	·	·
O=C(Nc1ccc(F)cc1F)c1cc(=O)n(-c2ccccc2)c(=O)[nH]1	-5	-9	·	0	3	-4	5	i
O=C(O)C1CCCCC1C(=O)Nc1cccc(Br)c1 (centres undefined)	-19	-22	6	21	7	·	·	·
COCCNC(=O)c1cnn2c1NC(c1ccco1)CC2C(F)(F)F (centres undefined)	0	-35	-13	-2	0	-11	-1	i
O=C(NCCN1CCCc2ccccc21)C1CCC(=O)N(CCc2ccccc2)C1 (centres undefined)	-10	-24	15	-4	2	19	1	·
CCN1C(=O)CC(N2CCN(c3cccc(OC)c3)CC2)C1=O (centres undefined)	-7	4	2	0	3	9	41	i
COc1ccc(N2CC(=O)N(c3ccc(OC)c(OC)c3)CC2=O)cc1OC	-9	·	-12	2	6	-2	-3	i
Cc1cccc(OCC(=O)NCc2ccncc2)c1C	6	-11	-28	1	3	5	-4	i
O=C(CN(CC1CCCO1)C(=O)CNS(=O)(=O)c1ccc(F)cc1)NCc1ccco1 (centres undefined)	·	-6	·	-2	2	2	-10	i

Next section, overlapping the part above by two compounds.
SMILES	CSC inhib	HIV Env fusion	UUG fidelity	MT1-MMP act inh	MT1-MMP act inh RFP	eIF4H inh	PABP polyA inh	Rce1 inhib	others
Cc1cccc(OCC(=O)NCc2ccncc2)c1C	6	-11	-28	1	3	5	-4	i
O=C(CN(CC1CCCO1)C(=O)CNS(=O)(=O)c1ccc(F)cc1)NCc1ccco1 (centres undefined)	·	-6	·	-2	2	2	-10	i
CCCOc1ccc(C2=CSC3=NCCN23)cc1[N+](=O)[O-]	26	3	-5	0	0	-5	1	i
COc1ccc(C(=O)NCc2nnc(SCC(=O)NCc3ccc(F)cc3)o2)cc1	1	-62	-16	-1	-3	-1	-4	i
Cc1nc(SC2CCOC2=O)c2c(C)c(C)sc2n1 (centres undefined)	-11	·	-21	0	-1	-2	-11	i
Cc1ccc(N2CCN(/N=C/c3ccccc3[N+](=O)[O-])CC2)cc1	4	3	3	2	-5	0	-6	i
Cc1cc(NC(=O)c2ccc(Br)o2)ccc1NC(=O)c1ccco1	28	7	-3	-1	-2	11	-2	i
CCOc1ccc(S(=O)(=O)Nc2ccc(OC)nc2)cc1	-7	2	-13	0	-11	-9	10	i
c1ccc2c(c1)Nc1ccncc1S2	10	42	·	-16	-10	-1	10	i
COc1cccc(CN2CCC(Oc3ccc(C(=O)N4CCCCC4)cc3)CC2)c1	5	13	-12	2	0	-14	-10	i
c1ccc2c(c1)CCN2CCN1CCc2ccccc21	-7	·	-12	5	1	-6	-1	i
COc1ccc(C(=O)Nc2ccc(C)cn2)c(OC)c1	3	-3	-85	6	-1	-5	1	i
CCn1c(CN(C)c2ccccc2)nc2ccccc21	12	24	-16	-8	-5	-10	-1	i
O=C(Cc1cccc(NC(=O)C2CCN(C(=O)CCc3ccccc3)CC2)c1)Nc1cccc(C(=O)N2CCCC2)c1	-11	7	-16	-2	-2	·	·	·
CCc1ccc(C(C)NC(=O)/C=C/c2ccc(Br)cc2)cc1 (centres undefined)	·	-45	-13	-6	-3	4	5	i
CCn1c(/C=C/c2ccccc2Cl)nc2ccccc2c1=O	27	-33	-18	0	-4	10	5	i
COc1cc(NC(=O)COc2cc3oc(=O)cc(C)c3cc2Cl)cc(OC)c1OC	-10	-4	-8	-14	-10	0	-17	i
O=C(C/C=N/OCc1c(Cl)cccc1Cl)c1ccc(Cl)cc1	9	-110	-14	2	0	13	1	i
CC(=O)N1CCc2c(sc(NC(=O)C3CC3)c2-c2nc3ccccc3s2)C1	21	21	-9	-19	1	45	42	i
COC(=O)[C@H](Cc1ccccc1)NS(=O)(=O)c1ccc(F)cc1Br	·	-21	-15	-1	-3	·	·	·
COc1ccc(OC)c(NC(=O)CSc2sc3c(O)cc(=O)[nH]c3c2C#N)c1	-3	1	-17	0	7	18	23	·
CC(Nc1n[nH]c(=O)[nH]c1=O)C(=O)N/N=C/c1cccs1 (centres undefined)	-12	10	·	-2	7	-8	13	i
Cc1c(NC(=O)CCC2CCCCC2)c(=O)n(-c2ccccc2)n1C	-5	·	19	1	3	8	6	i
COc1ccccc1C(=O)C1CCCN(C(=O)c2ccccc2Cl)C1 (centres undefined)	·	-3	-17	-5	1	-1	14	i
Cc1ccc(C(=O)c2coc3ccc(O)c(CN(C)C)c23)cc1	-13	1	1	-1	3	-10	18	i
O=C(Nc1cccc(Cl)c1)C1CCCN(S(=O)(=O)c2ccc(F)cc2)C1 (centres undefined)	·	28	13	-13	-21	-7	9	i
Cc1cccc(C)c1OCC(=O)NCc1nnc(SCC(=O)NC2CCCCC2C)n1C (centres undefined)	-13	-79	-11	-2	0	-9	40	i
Cc1ccc(N2CCN(S(=O)(=O)c3nnc(NC(=O)c4ccccc4)s3)CC2)cc1	31	-26	-13	-2	-13	-12	-2	i
COc1ccc(C2C(C(C)=O)=C(O)C(=O)N2Cc2ccccc2)c(OC)c1 (centres undefined)	5	14	-6	5	-1	-6	-1	i
CC1(C(=O)NCc2ccc3c(c2)OCO3)CCN1C(=O)Cc1ccc(Cl)cc1Cl (centres undefined)	·	-49	6	-1	-2	·	·	·
Cc1cc(Cl)c2oc(C(=O)N3CCC(O)(c4ccccc4)CC3)c(C)c2c1	4	-3	-12	6	-2	5	4	i
CN(C)/C=C(\C#N)S(=O)(=O)C(C)(C)C	·	19	-15	2	2	-8	-4	i
CC(=O)NCc1ccc(S(=O)(=O)NC(C(=O)O)C(C)C)cc1 (centres undefined)	2	1	-18	-1	1	-2	-1	i
O=C(O)c1cccc2c(-c3ccccc3)c(-c3ccccc3)[nH]c12	41	7	-4	-2	1	2	7	i
COCCCNc1nccn2ccnc12	·	16	-18	1	5	·	·	·
O=C(NCC(c1ccco1)N1CCOCC1)c1c(F)cccc1F (centres undefined)	-5	·	-11	4	5	·	·	i
Cc1onc(-c2ccccc2)c1C(=O)Nc1ccc(N2CCOCC2)cc1	-4	1	-5	3	-1	3	-5	i
Cc1ccccc1NS(=O)(=O)c1ccc(OCC(=O)N2CCCC2)cc1	12	·	-5	3	3	3	8	i
CCc1nc(N2CCCC2)c(C#N)c2c1CCCC2	10	-104	-17	-7	-6	4	2	i
Cc1[nH]nc2cn[nH]c12	-12	17	-9	-2	1	1	-7	i
COc1cc(/C=N/N=C(/N)c2nonc2N)cc(Br)c1OCc1ccccc1C	15	10	·	-11	-8	-3	-6	i
CC(NC(=O)C(C)(C)C)c1nc2ccccc2n1C (centres undefined)	1	-21	-12	0	3	-1	8	i
COC(=O)[C@@H](Cc1ccccc1)NS(=O)(=O)N[C@H](Cc1ccccc1)C(=O)OC	·	-8	-6	1	-1	·	·	·
C=CCSc1nnc2c(n1)OC(c1cccnc1)Nc1ccccc1-2 (centres undefined)	-6	-38	-18	2	1	-3	46	i
O=C1CCCN1CCCNc1ncnc2sccc12	6	6	·	-1	0	8	1	i
CC1CCCC(C)N1C(=O)CSc1nnnn1Cc1ccccc1 (centres undefined)	-16	11	-3	-3	-4	-1	-2	i
CN(C)S(=O)(=O)Nc1ccc(C(=O)O)cc1	-2	-43	-21	3	4	3	-6	i
Nc1ccc2c(c1)C(=O)c1ccc(Br)cc1-2	·	-4	-38	2	0	·	·	·
COc1ccc2c(c1)c(C(=O)N/N=C/c1ccc(Cl)cc1)c(C)n2C	33	6	·	3	-9	-9	-1	i
COc1ccc(NC(=O)NNC(=O)C(O)(c2ccccc2)c2ccccc2)cc1	-7	-157	-5	3	8	-7	3	i
CN1CCN(CCCNC(=O)CCCOc2cc(=O)n(C)c3ccccc23)CC1	-13	16	-19	5	5	1	1	i
CCCCCCCN1N=C(C)C(C(=O)c2ccccc2)C1=O (centres undefined)	10	-21	-18	7	4	0	22	i
Additional compounds:
SMILES	CSC inhib	HIV Env fusion	UUG fidelity	MT1-MMP act inh	MT1-MMP act inh RFP	eIF4H inh	PABP polyA inh	Rce1 inhib	others
CCCCOCCCn1cnc2c([nH]c3cc(OC)ccc32)c1=O	-7	·	-8	11	1	-1	-8	i
COc1cccc(C(=O)Nc2cccc(OCC(=O)c3ccccc3)c2)c1	1	10	·	4	-14	15	-4	i
C/C(=C\C(=S)Nc1ccccc1)Nc1ccccc1	-10	-3	·	-1	5	0	1	i
O=C(NCCCn1ccnc1)c1ccc(Br)c(S(=O)(=O)N2CCOCC2)c1	0	-13	-11	2	7	-8	-7	i
Nc1cccc(C(=O)OCC(=O)Nc2cccc3c2C(=O)c2ccccc2C3=O)c1	44	-108	·	-11	12	9	-6	i
CN(Cc1c(O)ccc2c1oc(=O)c1ccccc12)C1CCCCC1	·	-34	92	8	6	85	31	i	eIF4H inh retest=11;PABP polyA inh retest=-1
O=[N+]([O-])c1ccc2nc(-c3ccccn3)[nH]c2c1	23	-31	-13	5	-5	12	10	i

An excerpt from the list above, for reference:
SMILES	CSC inhib	HIV Env fusion	UUG fidelity	MT1-MMP act inh	MT1-MMP act inh RFP	eIF4H inh	PABP polyA inh	Rce1 inhib	others
CC1C(C)C(O)(c2ccccc2)CCN1C (centres undefined)	-8	-42	-7	5	4	7	-9	·
CC(C)(C)c1ccccc1OCCCCN1CCCC1	3	·	-13	0	8	-11	-4	i
C[C@@H]1CCCCO[C@@H](CN(C)CC2CC2)[C@@H](C)CN([C@H](C)CO)C(=O)c2cc(N(C)C)ccc2O1	·	3[16.7 µM]	-8	-2	6	·	·	·
O=C1/C(=C\c2ccc(O)cc2)SC(=S)N1Cc1ccccc1	-13	-3	-14	-151	-1	15	34	i
